# Assay outcomes from PubChem BioAssay.
# rRNA inh HTS: inhibits bacterial ribosomal RNA function over humanized ribosomes | E. coli WT GFP vs humanized-ribosome RFP mutants, fluorescence, 24 h; stronger effect = lower value; DMSO median 0, no signal -100 | GFP signal change (wild-type ribosome), % (no concentration beside the values) | 1.6% of 350,000 active;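 active = significant combined selectivity score with lowered wild-type GFP, culture density cut under 30%, mutant RFP and density less affected; inactive = any of these conditions unmet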; also: one replicate is shown; some compounds called inactive have numbers as strong as hits
# rRNA inh HTS OD600: recorded beside rRNA inh HTS, whose call it bears; OD600 change, %; measured here: OD600 growth;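 optical density of the mix in the first replicate; 0 = DMSO median and -100 = no signal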
# rRNA inh HTS RFP: recorded beside rRNA inh HTS, whose call it bears; RFP signal change, %; measured here: RFP humanized mutant strains;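 first replicate; 0 = DMSO median and -100 = no signal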
# Active calls of the source: *. This is a subset; the hit share may differ from the screen's.
SMILES,rRNA inh HTS,rRNA inh HTS OD600,rRNA inh HTS RFP
COc1ccc(CN(C)C[C@@H]2Oc3c(NC(=O)Nc4ccc(OC)cc4)cccc3C(=O)N([C@@H](C)CO)C[C@H]2C)cc1,-3,-4,1.3
C[C@@H]1CN([C@H](C)CO)C(=O)c2cc(C3=CCCC3)cnc2O[C@H]1CN(C)Cc1cccc(F)c1,-4,-5,1.7
CN1C(=O)c2cc(NC(=O)Cc3cccs3)ccc2OC[C@@H]2O[C@H](CC(=O)N[C@@H]3CCN(Cc4ccccc4)C3)CC[C@@H]21,-5,-12,0.8
CC(=O)N1[C@@H](CO)[C@@H]2c3ccccc3N(C(=O)Nc3cc(F)ccc3F)C[C@@H]21,2,2,-0.5
CC(C)(C)[S@](=O)N1Cc2cc(C(=O)NCCN3CCCCC3)nc(-c3cccc(-c4cccc(C#N)c4)c3)c2[C@@H]1CCO,0,5,0.1
C[C@H]1CN([C@@H](C)CO)C(=O)CCCn2cc(nn2)CO[C@@H]1CN(C)Cc1ccc2c(c1)OCCN2C,-2,-1,-0.3
O=S(=O)(Nc1ccc(NS(=O)(=O)c2ccccc2)c2ccccc12)c1ccccc1,22,24,5.1
C[C@H](CO)N1C[C@H](C)[C@H](CN(C)Cc2ccc(-c3ccccc3)cc2)Oc2c(NC(=O)C3CCOCC3)cccc2C1=O,1,4,-1.0
O=C(C[C@@H]1CC[C@@H]2[C@H](COC[C@H](O)CN2CCc2ccccc2)O1)N1CCC(Cc2ccccc2)CC1,-54,-80,-12
C[C@H](O)C#Cc1ccc([C@H]2[C@H](CO)N3CCCCN(S(=O)(=O)Cc4ccccc4)C[C@@H]23)cc1,3,10,2.1
CC(=O)NC[C@@H]1[C@H](c2ccc(-c3cccc(F)c3)cc2)[C@H](CO)N1C(C)=O,-4,-11,-1.8
COc1ccc(NC(=O)Nc2nc(C(N)Cc3ccc(C(F)(F)F)cc3)cs2)cc1 (stereo unspecified),-29,-31,-3.8
C[C@H]1CN([C@@H](C)CO)S(=O)(=O)c2ccc(C#CCC3CCCC3)cc2O[C@H]1CN(C)C(=O)c1cnccn1,-12,-50,35
O=S(=O)(Cc1ccccc1)NCC[C@@H]1CC[C@H](NS(=O)(=O)c2ccccc2)[C@H](CO)O1,-1,0,-0.7
CO[C@@H]1CN(C)C(=O)c2ccc(NC(=O)C3CC3)cc2OC[C@H](C)N(CC2CC2)C[C@@H]1C,-2,1,-0.4
COc1ccc(-c2ccc3nccn3c2)cc1,0,-6,-3.5
O=C(O)C[C@@H]1C=C[C@H](NC(=O)Nc2ccccc2)[C@H](CO)O1,-1,3,-0.5
CCc1ccc(C#CC2=CC(=O)CC(C)(C)C2)cc1,-17,-25,2.0
C[C@H](CO)N1C[C@H](C)[C@H](CN(C)CC2CCCC2)Oc2ncc(-c3cccc(F)c3)cc2C1=O,-6,4,-0.4
COc1ccc(NC(=O)Nc2ccc3c(c2)[C@H]2C[C@H](CC(=O)NC4CCCCC4)O[C@@H](CO)[C@H]2O3)cc1,2,10,-3.4
CCCN(C)C[C@@H]1Oc2cc(-c3ccccc3OC)ccc2S(=O)(=O)N([C@@H](C)CO)C[C@@H]1C,2,9,-1.8
CN1CCN(C(=O)C[C@H]2C=C[C@@H](NC(=O)c3ccc4c(c3)OCO4)[C@@H](CO)O2)CC1,2,1,-1.1
Cc1noc(C)c1S(=O)(=O)Nc1cccc2c1O[C@@H](CN(C)S(=O)(=O)c1ccccc1)[C@@H](C)CN([C@H](C)CO)C2=O,1,-3,-2.3
Cn1cnc(S(=O)(=O)N2CCCCN3[C@H](CO)[C@H](c4ccc(-c5cccc(F)c5)cc4)[C@@H]3C2)c1,-1,-8,3.9
Cc1cccc(S(=O)(=O)NC(=O)C2(C)CCN2C(=O)Cc2ccc(-c3ccccc3)cc2)c1 (stereo unspecified),-17,-15,-3.1
O=C(NCCc1cccc(F)c1)C1CC(O)CN1C(=O)Nc1ccccc1 (stereo unspecified),0,11,-1.8
O=C([C@H]1[C@H](CO)[C@H]2Cn3c(ccc(-c4cccc(F)c4)c3=O)[C@H]2N1Cc1cocn1)N1CCCCC1,1,2,0.8
O=C(COC(=O)c1cc(S(=O)(=O)N2CCOCC2)ccc1F)Nc1ccccc1C(F)(F)F,16,8,1.9
C[C@H](CO)N1C[C@H](C)[C@@H](CN(C)C)Oc2ccc(NS(=O)(=O)c3cccs3)cc2CC1=O,2,-3,-5.2
CN1c2ccc(-c3ccccc3)cc2[C@H]2[C@H](CCN2C(=O)Cc2ccccn2)[C@@H]1CO,4,16,3.9
CC=Cc1ccc2n(c1=O)C[C@H]1[C@H](CO)[C@@H](C(=O)NC3CCCC3)N(CC3CCCCC3)[C@@H]21 (mixture of isomers),-15,-53,31
C[C@@H]1CN([C@H](C)CO)C(=O)c2cccc(N(C)C)c2O[C@@H]1CN(C)Cc1ccc2c(c1)OCO2,3,0,2.8
COc1ccc(NC(=O)N(C)C[C@H]2Oc3ccc(NC(=O)CCCCCC(=O)Nc4ccccc4N)cc3CC(=O)N([C@@H](C)CO)C[C@@H]2C)cc1,2,12,1.2
C[C@@H]1CN([C@H](C)CO)S(=O)(=O)c2ccc(C3=CCCCC3)cc2O[C@H]1CN(C)S(C)(=O)=O,0,-26,-8.1
COC(=O)C[C@H]1CC[C@@H]2[C@@H](COc3ccc(NC(=O)c4ccccc4F)cc3C(=O)N2C)O1,-4,-7,0.4
CCCC(O)C#Cc1cnc2c(c1)C(=O)N([C@H](C)CO)C[C@H](C)[C@H](CN(C)S(=O)(=O)c1ccc(F)cc1)O2 (stereo partly specified),8,16,-1.8
CCCNC(=O)C[C@H]1C[C@@H]2c3cc(NC(=O)NC4CCCC4)ccc3O[C@@H]2[C@@H](CO)O1,-5,-1,-2.1
O=C(Nc1cc(S(=O)(=O)N2CCOCC2)ccc1N1CCCC1)c1ccccc1F,13,10,-0.3
CC(C)CC#Cc1ccc([C@H]2[C@@H](CO)N3CCCCN(C(=O)Nc4ccccc4)C[C@H]23)cc1,-56,-78,-17
CCCCCCCCN1C(=O)[C@@H](CC(=O)N2CCN(C(=O)C3CC3)CC2)C[C@@]2(C(=O)OC)C1=C[C@H](C(C)(C)C)O[C@@H]2C,8,3,0.8
O=C(NC1CCCC1)N1CC(=O)N2[C@H](C1)[C@@H](c1ccc(-c3cccc(F)c3)cc1)[C@@H]2CO,-12,-31,12
C[C@@H]1CCCCO[C@H](CN(C)S(C)(=O)=O)[C@H](C)CN([C@@H](C)CO)C(=O)c2cc(NC(=O)C3CCCCC3)ccc2O1,-3,-4,-0.9
CCS(=O)(=O)N1CC2(CN(C(=O)c3cccnc3)C2)c2c(n(C)c3cc(OC)ccc23)[C@H]1CO,2,18,-0.4
O=C(C[C@H]1C[C@@H]2c3cc(NC(=O)Nc4ccc(C(F)(F)F)cc4)ccc3O[C@@H]2[C@H](CO)O1)NCc1cc(F)ccc1F,2,-2,3.4
C/C=C/c1ccc([C@@H]2[C@H](CO)N(S(C)(=O)=O)[C@H]2CN(CC)C(C)=O)cc1,0,-7,1.1
COc1ccc(CN(C)C[C@@H]2Oc3c(NS(=O)(=O)c4ccc(C)cc4)cccc3C(=O)N([C@H](C)CO)C[C@@H]2C)cc1,1,-1,0.3
CO[C@@H]1CN(C)C(=O)c2ccc(NS(=O)(=O)c3c(C)noc3C)cc2OC[C@H](C)NC[C@@H]1C,5,14,-0.4
C[C@H](CO)N1C[C@H](C)[C@@H](CN(C)C)OCCCC[C@H](C)Oc2ccc(NC(=O)Nc3ccc(F)cc3)cc2C1=O,-1,-3,-0.8
CC=Cc1ccc2n(c1=O)C[C@@H]1[C@@H](CO)[C@H](C(=O)N(C)C)N(CC3CCCCC3)[C@H]21 (mixture of isomers),0,-6,3.6
CCN(C[C@H]1[C@@H](c2ccccc2)[C@@H](CO)N1C(C)=O)C(=O)c1ccccn1,3,13,-3.0
C[C@H]1CN([C@@H](C)CO)C(=O)c2cc(NC(=O)Nc3ccccc3)ccc2O[C@@H]1CN(C)C(=O)Nc1ccc(C(F)(F)F)cc1,-10,-12,2.1
C[C@H]1CCCCO[C@H](CN(C)S(C)(=O)=O)[C@@H](C)CN([C@@H](C)CO)C(=O)c2cc(NC(=O)NC3CCCCC3)ccc2O1,-1,-3,0.0
COc1ccc(-c2c(C(=O)c3ccccc3)[nH]c(N)c2C(N)=O)cc1OC,7,10,4.0
CO[C@H]1CN(C)C(=O)c2cc(NC(=O)NC3CCCC3)ccc2OC[C@@H](C)N(CC2CC2)C[C@@H]1C,3,4,-1.3
N#C[C@@H]1[C@@H](c2ccc(C3=CCCC3)cc2)[C@@H](CO)N1C(=O)NC1CCCCC1,-4,5,-3.6
C[C@@H](NC(=O)C[C@H]1CC[C@H]2[C@@H](COC[C@H](O)CN2C(=O)Nc2cccc(F)c2)O1)c1ccccc1,-22,-34,0.5
C[C@@H]1CN([C@H](C)CO)C(=O)c2cc(NC(=O)Nc3ccccc3)ccc2O[C@H]1CN(C)C(=O)Nc1ccccc1,1,16,-5.4
O=C(C[C@@H]1CC[C@H]2[C@@H](COC[C@@H](O)CN2CCc2ccccc2)O1)NCc1ccccc1,-2,-6,-2.2
COCCNC(=O)C[C@@H]1C=C[C@@H](NC(=O)NC2CCCCC2)[C@H](CO)O1,1,9,0.1
O=C(Nc1ccc(Cc2ccc(NC(=O)Nc3cccnc3)cc2)cc1)Nc1cccnc1,-5,8,1.3

# New compounds follow:
SMILES,rRNA inh HTS,rRNA inh HTS OD600,rRNA inh HTS RFP
O=C1NC[C@@H](CCCCN2C[C@H](Cc3ccc(O)cc3)N(CCc3ccc(O)cc3)C(=O)C2=O)N(CCc2ccccc2)C1=O,14,8,1.1
CCOC(=O)C1(Cc2ccccc2)CCCN(C(=O)COc2ccccc2OC)C1 (stereo unspecified),-32,-65,-7.8
O=S1(=O)N[C@@H](Cc2ccccc2)COc2cccc(N3CCC[C@H]3CO)c21,-27*,-20*,2.6*
O=C(C[C@@H]1CC[C@@H]2[C@H](COC[C@@H](O)CN2Cc2cc(F)ccc2F)O1)N[C@H]1CCN(Cc2ccccc2)C1,4,3,-9.8
C[C@H]1CN([C@@H](C)CO)C(=O)c2c(c3ccccc3n2C)-c2ccccc2CO[C@H]1CN(C)S(=O)(=O)c1ccc(F)cc1,1,-7,0.4
C[C@H]1CCCCO[C@@H](CN(C)C(=O)Nc2cccc3ccccc23)[C@@H](C)CN([C@@H](C)CO)C(=O)c2cc(NS(=O)(=O)c3cccs3)ccc2O1,3,1,5.4
Cc1ccc(S(=O)(=O)Nc2ccc3c(c2)CC(=O)N([C@H](C)CO)C[C@@H](C)[C@@H](CN(C)Cc2ccc(Oc4ccccc4)cc2)O3)cc1,4,-1,1.4
CC(=O)Nc1cc(-c2cccc(NS(C)(=O)=O)c2)cn2c(-c3cccc(C(C)=O)c3)cnc12,4,4,-0.3
CO[C@@H]1CN(C)C(=O)c2cc(NC(=O)C3CCOCC3)ccc2OC[C@@H](C)N(C(=O)c2ccccc2)C[C@H]1C,0,2,-3.1
C/C=C/c1ccc([C@H]2[C@@H](CO)N(C(C)=O)[C@H]2CN(CC(C)C)C(C)=O)cc1,-1,-7,-1.6
CCNC(=O)C[C@@H]1CC[C@@H]2[C@H](COC[C@H](O)CN2C(=O)Nc2ccc3c(c2)OCO3)O1,3,15,-0.7
C[C@@H]1CN([C@@H](C)CO)C(=O)c2cc(NC(=O)Nc3ccccc3)ccc2O[C@@H](C)CCCCO[C@@H]1CN(C)Cc1ccc(C(F)(F)F)cc1,3,7,0.6

# Not a retest: an excerpt of the list.
SMILES,rRNA inh HTS,rRNA inh HTS OD600,rRNA inh HTS RFP
COc1ccc(CN(C)C[C@@H]2Oc3c(NC(=O)Nc4ccc(OC)cc4)cccc3C(=O)N([C@@H](C)CO)C[C@H]2C)cc1,-3,-4,1.3
C[C@@H]1CN([C@H](C)CO)C(=O)c2cc(C3=CCCC3)cnc2O[C@H]1CN(C)Cc1cccc(F)c1,-4,-5,1.7
CN1C(=O)c2cc(NC(=O)Cc3cccs3)ccc2OC[C@@H]2O[C@H](CC(=O)N[C@@H]3CCN(Cc4ccccc4)C3)CC[C@@H]21,-5,-12,0.8
CC(=O)N1[C@@H](CO)[C@@H]2c3ccccc3N(C(=O)Nc3cc(F)ccc3F)C[C@@H]21,2,2,-0.5
CC(C)(C)[S@](=O)N1Cc2cc(C(=O)NCCN3CCCCC3)nc(-c3cccc(-c4cccc(C#N)c4)c3)c2[C@@H]1CCO,0,5,0.1
C[C@H]1CN([C@@H](C)CO)C(=O)CCCn2cc(nn2)CO[C@@H]1CN(C)Cc1ccc2c(c1)OCCN2C,-2,-1,-0.3
O=S(=O)(Nc1ccc(NS(=O)(=O)c2ccccc2)c2ccccc12)c1ccccc1,22,24,5.1
C[C@H](CO)N1C[C@H](C)[C@H](CN(C)Cc2ccc(-c3ccccc3)cc2)Oc2c(NC(=O)C3CCOCC3)cccc2C1=O,1,4,-1.0
O=C(C[C@@H]1CC[C@@H]2[C@H](COC[C@H](O)CN2CCc2ccccc2)O1)N1CCC(Cc2ccccc2)CC1,-54,-80,-12

# Next section.
SMILES,rRNA inh HTS,rRNA inh HTS OD600,rRNA inh HTS RFP
C[C@H](CO)N1C[C@H](C)[C@@H](CN(C)Cc2ccc(Oc3ccccc3)cc2)Oc2ccc(NC(=O)Cn3cnnn3)cc2CC1=O,-57,-77,-17
C[C@@H]1CCCCO[C@@H](CN(C)C)[C@@H](C)CN([C@@H](C)CO)C(=O)c2cc(NC(=O)Nc3cccc4ccccc34)ccc2O1,-3,-23,1.1
C[C@@H]1CCCCO[C@H](CN(C)S(=O)(=O)c2ccccc2)[C@@H](C)CN([C@H](C)CO)C(=O)c2cc(NC(=O)CCCN(C)C)ccc2O1,3,8,1.2
C[C@@H]1CN([C@@H](C)CO)C(=O)c2cccc(NS(=O)(=O)c3cccs3)c2O[C@H]1CN(C)S(=O)(=O)c1ccccc1,1,-2,-1.3
